DUX4 txn inh: blocks DUX4-driven transcriptional activation | 293T-iDUX4 ZSCAN4-Gaussia luciferase reporter, 24 h; hits give low values | activity change, negative = inhibition, % (concentration not given with the values) | actives 0.8% (n = 37,000) | AID 1224904;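 active = -10% or lower and over 25 points stronger than a control reporter; inconclusive = -10% or lower with a smaller gap; inactive = above -10%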;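 also: 0% = median of neutral control wells and -100% = median of positive control wells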
DUX4 txn inh difference: also measured in DUX4 txn inh; calls as there; Gaussia minus Italica difference, %; measured here: selective DUX4 reporter inhibition;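 worked out from the two reporters; negative = selective loss of the DUX4 reporter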
DUX4 txn inh control: recorded beside DUX4 txn inh, whose call it bears; activity change, negative = inhibition, %; measured here: Italica tet-on control reporter;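 0 = neutral control and -100 = positive control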
Numbers without * were called inactive; ? = inconclusive; . = no result given.

DUX4 txn inh	DUX4 txn inh difference	DUX4 txn inh control	SMILES
3	0	3.8	C[C@H]1CN([C@@H](C)CO)S(=O)(=O)c2ccc(C#CC3CCCC3)cc2O[C@H]1CN(C)C(=O)Nc1cc(F)ccc1F
13	19	-6.6	O=C(C[C@@H]1C[C@H]2c3cc(NC(=O)Cc4ccncc4)ccc3O[C@H]2[C@@H](CO)O1)NCc1ccccn1
7	6	1.1	N#Cc1cccc(-c2ccc3c(c2)[C@H]2[C@H](CCN2C(=O)c2ccncc2)[C@@H](CO)N3)c1
7	5	1.7	COc1cccc(C(=O)Nc2ccc3c(c2)C(=O)N(C)[C@@H]2CC[C@H](CC(=O)NCc4ccccc4F)O[C@@H]2CO3)c1
?	.	.	Cn1cnc(S(=O)(=O)N2CCCCN3[C@H](CO)[C@@H](c4ccc(C#CC5CCCC5)cc4)[C@@H]3C2)c1
1	-3	3.9	CCCN(C)C[C@@H]1OCCCC[C@@H](C)Oc2ccc(NS(=O)(=O)c3ccc(C)cc3)cc2C(=O)N([C@H](C)CO)C[C@@H]1C
0	2	-2.1	COC(=O)[C@@H]1[C@@H](CO)[C@@H]2Cn3c(ccc(-c4cncnc4)c3=O)[C@@H]2N1CCC(F)(F)F
18	7	11	O=C(C[C@H]1CC[C@H]2[C@@H](COC[C@@H](O)CN2C(=O)c2cnccn2)O1)NCc1ccccc1
16	18	-2.4	COc1ccc2c3c(n(C)c2c1)[C@@H](CO)NCC31CN(C(=O)Nc2ccccc2F)C1
3	0	3.1	O=C(CCN1CCCCC1)NCC[C@H]1CC[C@H](NS(=O)(=O)c2cccc(Cl)c2)[C@@H](CO)O1
-4	2	-5.8	CN1[C@H](C(=O)Nc2ccccc2)[C@@H](CO)[C@@H]2Cn3c(ccc(-c4ccc(F)cc4)c3=O)[C@@H]21
8	7	1.2	CCS(=O)(=O)N1CC2(C1)[C@@H](c1ccccc1)[C@H](CO)N2Cc1ccc(F)cc1
-1	-1	0.7	C[C@@H]1CN([C@@H](C)CO)C(=O)c2cc(NC(=O)Cc3ccccc3)ccc2O[C@@H](C)CCCCO[C@H]1CN(C)C(=O)CCC(F)(F)F
?	19	-6.3	CN(C)CC(=O)N1C[C@@H]2N[C@H](C1)C2c1ccc(-c2ccccc2F)cc1 (stereo partly drawn)
?	.	.	C[C@@H]1CN([C@H](C)CO)C(=O)c2c(c3ccccc3n2C)-c2ccccc2CO[C@@H]1CN(C)S(=O)(=O)c1ccc(F)cc1
-4	5	-9.4	COc1cccc(CN2[C@H](CO)[C@H]3c4ccccc4N(C(=O)CC(F)(F)F)C[C@H]32)c1
0	1	-1.0	C[C@H]1CN([C@@H](C)CO)C(=O)c2cc(NC(=O)Cn3cnnn3)ccc2O[C@@H]1CN(C)Cc1ccc(C(=O)Nc2ccccc2N)cc1
2	5	-3.1	CCCC#Cc1ccc([C@@H]2[C@@H](CO)N3C(=O)CN(C(=O)NC4CCCC4)C[C@H]23)cc1
-5	-5	-0.3	O=C(C[C@@H]1C[C@H]2c3cc(NC(=O)C4CCC4)ccc3O[C@H]2[C@H](CO)O1)NCc1cccc(F)c1
-1	-17	16	COc1ccccc1CN1CC[C@@H]2[C@@H](CO)Nc3ccc(C#Cc4ccccc4)cc3[C@@H]21
-3	-4	1.1	O=C(NC1CCCC1)N1CC2(C1)[C@H](c1ccccc1)[C@H](CO)N2S(=O)(=O)Cc1ccccc1
17	6	11	CCC(=O)N1CC2(CN(Cc3ccncc3)C2)c2c(n(C)c3cc(OC)ccc23)[C@@H]1CO
2	-2	4.2	CN1CCN(C(=O)c2cc3c(c(-c4cccc(C5=CCCC5)c4)n2)[C@H](CCO)N([S@@](=O)C(C)(C)C)C3)CC1
5	2	3.1	C[C@H](CO)N1C[C@H](C)[C@H](CN(C)C(=O)Nc2cccc(F)c2)Oc2cc(/C=C/c3ccccc3)ccc2S1(=O)=O
0	-3	3.5	C[C@@H]1CCCCO[C@H](CN(C)S(C)(=O)=O)[C@H](C)CN([C@H](C)CO)C(=O)c2cc(N(C)C)ccc2O1
3	-4	7.4	CCC(=O)N(C)C[C@H]1[C@H](c2ccc(-c3ccccc3F)cc2)[C@@H](CO)N1C(C)=O
-6	-5	-0.3	COc1ccccc1-c1cnc2c(c1)C(=O)N([C@H](C)CO)C[C@@H](C)[C@@H](CN(C)Cc1cncnc1)O2
-1	0	-0.6	Cc1ccc(-c2cnc3c(c2)C(=O)N([C@H](C)CO)C[C@H](C)[C@@H](CN(C)C(=O)Cc2ccccc2)O3)cc1
-3	0	-2.5	COc1ccc(S(=O)(=O)Nc2ccc3c(c2)C(=O)N([C@H](C)CO)C[C@H](C)[C@H](CN(C)Cc2ccc(C(F)(F)F)cc2)OCCCC[C@@H](C)O3)cc1
5	5	0.1	CCN(C[C@@H]1N[C@@H](CO)[C@@H]1c1ccc(C2=CCCC2)cc1)C(=O)c1cccnc1
4	6	-2.3	COc1ccc(CNC(=O)N(C)C[C@@H]2OCc3ccccc3-c3ccccc3C(=O)N([C@@H](C)CO)C[C@@H]2C)cc1
?	.	.	COc1ccc(S(=O)(=O)N(C)C[C@H]2OCc3ccccc3-c3c(n(C)c4ccccc34)C(=O)N([C@H](C)CO)C[C@@H]2C)cc1
-1	-10	9.0	COc1ccc(C#Cc2ccc([C@H]3[C@@H](CO)N4CCCCN(C)C[C@@H]34)cc2)cc1
6	0	6.2	CC=Cc1ccc2n(c1=O)C[C@H]1[C@H](CO)[C@@H](C(=O)NCc3ccncc3)N(Cc3cncnc3)[C@@H]21 (mixture of isomers)
0	3	-2.7	C[C@H]1CN([C@@H](C)CO)S(=O)(=O)c2ccc(Br)cc2O[C@@H]1CN(C)C(=O)C1CC1
13	2	12	CCCNC(=O)N1CC2(CCN(Cc3nccs3)CC2)c2c([nH]c3cc(OC)ccc23)[C@H]1CO
3	-1	3.8	CCCC#Cc1ccc2c(c1)O[C@H](CN(C)S(=O)(=O)c1cccc(F)c1)[C@H](C)CN([C@H](C)CO)S2(=O)=O
-4	-4	0.4	CO[C@@H]1CN(C)C(=O)c2cc(NC(=O)Nc3cccc(Cl)c3)ccc2OC[C@@H](C)N(C(=O)Nc2c(C)noc2C)C[C@@H]1C
-3	0	-2.8	C[C@@H]1CCCCO[C@@H](CN(C)Cc2ccc3c(c2)OCO3)[C@H](C)CN([C@@H](C)CO)C(=O)c2cc(N(C)C)ccc2O1
-3	-2	-1.1	C/C=C/c1ccc2c(c1)[C@H]1[C@H](CCN1Cc1ccc(F)cc1)[C@H](CO)N2
22	15	6.2	CCC(=O)N1[C@H](CO)[C@H](c2ccccc2)C12CN(C(=O)c1ccncc1)C2
3	-1	3.8	COCC(=O)N1[C@@H](CO)[C@@H]2c3ccccc3N(C(=O)c3cccnc3)C[C@@H]21
4	-2	5.7	O=C([C@H]1[C@H](CO)[C@H]2Cn3c(ccc(-c4ccccc4F)c3=O)[C@@H]1N2C(=O)C1CC1)N1CCCCC1
0	2	-1.8	CCC(=O)N1C[C@@H](C)[C@@H](OC)CN(C)C(=O)c2ccc(NC(=O)C3CCOCC3)cc2OC[C@@H]1C
?	.	.	O=C(C[C@H]1CC[C@@H]2[C@H](COC[C@H](O)CN2Cc2cc(F)ccc2F)O1)N1CCc2ccccc2C1
3	0	3.5	C[C@H](CO)N1C[C@H](C)[C@H](CN(C)S(=O)(=O)c2cccs2)Oc2ccc(NS(C)(=O)=O)cc2CC1=O
6	4	2.0	C/C=C/c1cnc2c(c1)C(=O)N([C@@H](C)CO)C[C@@H](C)[C@H](CN(C)C(=O)NC1CCCC1)O2
2	-4	6.0	C[C@@H]1CN([C@H](C)CO)C(=O)c2cc(NC(=O)Cc3ccccc3)ccc2O[C@@H]1CN(C)C(=O)NC1CCCCC1

Arranged by length of the SMILES (ascending): part of the list above.
DUX4 txn inh	DUX4 txn inh difference	DUX4 txn inh control	SMILES
16	18	-2.4	COc1ccc2c3c(n(C)c2c1)[C@@H](CO)NCC31CN(C(=O)Nc2ccccc2F)C1
-1	-17	16	COc1ccccc1CN1CC[C@@H]2[C@@H](CO)Nc3ccc(C#Cc4ccccc4)cc3[C@@H]21
2	5	-3.1	CCCC#Cc1ccc([C@@H]2[C@@H](CO)N3C(=O)CN(C(=O)NC4CCCC4)C[C@H]23)cc1
0	3	-2.7	C[C@H]1CN([C@@H](C)CO)S(=O)(=O)c2ccc(Br)cc2O[C@@H]1CN(C)C(=O)C1CC1
?	.	.	Cn1cnc(S(=O)(=O)N2CCCCN3[C@H](CO)[C@@H](c4ccc(C#CC5CCCC5)cc4)[C@@H]3C2)c1
0	2	-2.1	COC(=O)[C@@H]1[C@@H](CO)[C@@H]2Cn3c(ccc(-c4cncnc4)c3=O)[C@@H]2N1CCC(F)(F)F
3	0	3.5	C[C@H](CO)N1C[C@H](C)[C@H](CN(C)S(=O)(=O)c2cccs2)Oc2ccc(NS(C)(=O)=O)cc2CC1=O
-1	0	-0.6	Cc1ccc(-c2cnc3c(c2)C(=O)N([C@H](C)CO)C[C@H](C)[C@@H](CN(C)C(=O)Cc2ccccc2)O3)cc1
7	5	1.7	COc1cccc(C(=O)Nc2ccc3c(c2)C(=O)N(C)[C@@H]2CC[C@H](CC(=O)NCc4ccccc4F)O[C@@H]2CO3)c1
1	-3	3.9	CCCN(C)C[C@@H]1OCCCC[C@@H](C)Oc2ccc(NS(=O)(=O)c3ccc(C)cc3)cc2C(=O)N([C@H](C)CO)C[C@@H]1C

Next section.
DUX4 txn inh	DUX4 txn inh difference	DUX4 txn inh control	SMILES
-1	-8	6.6	N#C[C@H]1[C@H](c2ccccc2)[C@@H](CO)N1S(=O)(=O)c1ccc(-c2ccccc2)cc1
-8	6	-14	O=C(Nc1ccc(F)cc1)N1CCCCN2[C@@H](CO)[C@H](c3ccc(C#CC4CC4)cc3)[C@@H]2C1
24	17	6.6	N#C[C@H]1[C@@H](c2ccccc2-c2cccc(F)c2)[C@@H](CO)N1C(=O)CN1CCOCC1
-2	-3	0.4	CC(=O)N1CC(=O)N2[C@@H](CO)[C@H](c3ccc(-c4ccccc4)cc3)[C@@H]2C1
0	1	-1.6	CCNC(=O)Nc1ccc2c(c1)C(=O)N(C)[C@@H]1CC[C@H](CC(=O)NCCN3CCCC3)O[C@H]1CO2
?	.	.	COc1ccc2c3c(n(C)c2c1)[C@@H](CO)NCC31CCN(Cc2cc(F)ccc2F)CC1
4	-1	5.4	O=C(CC1CC1)N1CC(=O)N2[C@@H](CO)[C@H](c3ccc(/C=C/c4ccccc4)cc3)[C@@H]2C1
-6	-2	-4.6	O=C(c1ccccc1F)N1CC2(C1)[C@H](c1ccccc1)[C@@H](CO)N2CC1CCCC1
-1	0	-0.5	C[C@H]1CN([C@@H](C)CO)C(=O)c2cc(C3=CCCCC3)cnc2O[C@@H]1CN(C)Cc1ccccc1C(=O)O
-2	3	-4.7	C[C@@H]1CN([C@@H](C)CO)C(=O)c2cc(-c3ccc(C#N)cc3)cnc2O[C@@H]1CN(C)Cc1cccnc1
13	4	9.3	COc1ccc2c3c(n(C)c2c1)[C@H](CO)N(Cc1cc(F)ccc1F)CC31CN(C(C)=O)C1
5	-1	5.5	C[C@@H]1CCCCO[C@@H](CN(C)S(=O)(=O)c2ccc(F)cc2)[C@H](C)CN([C@H](C)CO)C(=O)c2cc(N(C)C)ccc2O1
-1	-3	2.6	C[C@@H]1CN([C@H](C)CO)C(=O)c2cc(NC(=O)CCC(F)(F)F)ccc2O[C@@H](C)CCCCO[C@H]1CN(C)C(=O)Nc1cccc2ccccc12
-1	-1	0.2	O=C(C[C@@H]1C[C@@H]2c3cc(NC(=O)CC4CC4)ccc3O[C@@H]2[C@H](CO)O1)NCCc1ccccc1
?	.	.	COc1cccc(S(=O)(=O)Nc2ccc3c(c2)[C@@H]2C[C@H](CC(=O)NCc4ccc(Cl)cc4)O[C@H](CO)[C@@H]2O3)c1
-2	2	-4.3	Cc1noc(C)c1S(=O)(=O)Nc1ccc2c(c1)C(=O)N([C@@H](C)CO)C[C@@H](C)[C@H](CN(C)C(=O)Nc1ccc3c(c1)OCO3)OCCCC[C@H](C)O2
1	4	-2.3	C[C@H](CO)N1C[C@H](C)[C@H](CN(C)C(=O)c2cnccn2)Oc2cc(C#CCC3CCCC3)ccc2S1(=O)=O
-3	-3	0.2	CCCN1[C@H](C(=O)NCCCN2CCOCC2)[C@@H](CO)[C@@H]2Cn3c(ccc(-c4ccncc4)c3=O)[C@@H]21
1	0	1.1	CCC(=O)N1[C@H](CO)[C@H](c2ccc(-c3ccccc3)cc2)[C@H]1CN(CC)C(C)=O
3	0	3.1	CN1CCN(C(=O)c2cc3c(c(-c4cccc(-c5ccc(C#N)cc5)c4)n2)[C@H](CCO)N([S@@](=O)C(C)(C)C)C3)CC1
1	2	-0.2	CCN1[C@H](C(=O)NCCCN(C)C)[C@@H](CO)[C@@H]2Cn3c(ccc(-c4cccc(F)c4)c3=O)[C@@H]21
3	0	2.3	O=C(C[C@H]1CC[C@@H]2[C@H](COC[C@@H](O)CN2CCc2ccccc2)O1)NCCCN1CCOCC1
0	5	-4.8	C[C@@H]1CC=CC[C@H](c2ccccc2)NC(=O)[C@@H](Cc2ccccc2)N(C)C(=O)c2ccccc2O1 (mixture of isomers)
4	-1	4.3	C[C@@H]1CN([C@@H](C)CO)C(=O)CCCn2nncc2CO[C@H]1CN(C)C(=O)Nc1cccc(F)c1
-5	-2	-2.3	Cn1cnc(S(=O)(=O)N2CCCCN3[C@H](CO)[C@H](c4ccc(C#CC5CCCC5)cc4)[C@@H]3C2)c1
?	.	.	CO[C@@H]1CN(C)C(=O)c2ccc(NC(=O)c3nc4ccccc4s3)cc2OC[C@H](C)N(Cc2cccnc2)C[C@@H]1C
1	1	0.0	C/C=C/c1cnc2c(c1)C(=O)N([C@@H](C)CO)C[C@H](C)[C@H](CN(C)C(=O)Nc1c(C)noc1C)O2
0	-1	0.4	CNC[C@H]1OCCCC[C@H](C)Oc2ccc(NC(=O)Nc3cccc4ccccc34)cc2C(=O)N([C@@H](C)CO)C[C@@H]1C

Compound activity: PubChem, Broad Institute

A portion of the library (hit frequency here may not be typical).
